# Screening results: PubChem BioAssay, ICCB-Longwood Screening Facility, Harvard Medical School
# MgrA DNA FP – alters Staphylococcus aureus MgrA binding to DNA | fluorescence polarization | inhibition, %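 (about 10 µg/mL by stock and volumes)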 | hit rate 0.13% among 84,000 | AID 602314;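 active means above 50% in either of two replicates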;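 further: 0% = protein plus DNA without compound and 100% = DNA alone without protein; higher means less MgrA bound to DNA so lower polarization; one replicate is shown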
# Sa helicase inh – S. aureus DNA helicase inhibition; purified S. aureus helicase, fluorescence unwinding assay; about half of the hits fall short of the stated cut; inhibition, %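 (tested at about 80 µM)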; hit rate 0.05% among 120,000; AID 485395;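 active means both duplicates at 50% or more, or one of them with a favoured structure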;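 further: 0% = mean of negative control wells and 100% = mean of positive control wells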
# * marks the source's active call; other numbers are inactive results; · = no result given.
SMILES,MgrA DNA FP,Sa helicase inh
O=C1CCCN2N=C(SCc3ccc(Br)cc3)SC2=N1,·,9
CCOc1ccc(NS(=O)(=O)c2ccc3[nH]cc(C(=O)N4CCCCC4)c(=O)c3c2)cc1,·,-4
Cc1cc(C(=O)Cn2ccsc2=N)c(C)n1C1CC1,·,3
O=C(c1ccc(Cl)cc1Cl)N1CCN(Cc2ccccc2)CC1,0.1,·
O=c1c(F)cn(CC2CC(c3ccccc3)=NO2)c(=O)n1CC1CC(c2ccccc2)=NO1 (stereo unspecified),0.7,·
CC(C)C1Nc2ccc(C(=O)N3CCN(c4ccccn4)CC3)cc2NC1=O (stereo unspecified),·,6
COC(=O)c1ccc2c(c1)N(C)S(=O)(=O)c1cnc(SC)nc1-2,1.7,·
Cc1ccc(CSc2nnc(-c3ccccc3N)c(=O)[nH]2)cc1,3.6,6
CN1CCC(OC(=O)c2cc3ccccc3o2)CC1,-2.0,-16
C=CCNC(=O)c1cc2cc(Cl)ccc2o1,·,-10
COc1ccc(OCC(O)Cn2nc(C)cc2C)cc1 (stereo unspecified),3.8,5
CC(C)(C)C(=O)OC1OCCOC1NC(=S)N1CCCC1 (stereo unspecified),·,3
CCOC(=O)c1cnn(-c2cccc(C)c2)c1C1CCNCC1,·,23
Cn1cc(CC(=O)NCCCN2CCOCC2)c2ccccc21,-0.7,17
Cc1c(OC(C)C(=O)O)ccc2c3c(c(=O)oc12)CCCC3 (stereo unspecified),0.5,6
FC(F)(F)c1cccc(-n2cnnn2)c1,0.2,0
CCOC(=O)N1CCC(NC(=O)c2ccc(CS(=O)(=O)c3ccccc3C)o2)CC1,·,5
CCOC(=O)c1cnc(-c2ccccc2)nc1N1CCOCC1,·,39
Cc1cccc(CS(=O)(=O)c2ncn[nH]2)c1,1.8,·
CCCNC(=O)C1CCCN(c2nnc(N3CCCC3=O)s2)C1 (stereo unspecified),·,23
CN(C)S(=O)(=O)n1ccnc1,·,29
NC(=O)c1cnn(-c2ccc(S(N)(=O)=O)cc2)c1NC(=O)c1c(F)cccc1F,·,4
Cc1ccc(S(=O)(=O)N2CCCCC2)cc1C,·,7
CC(NC(=O)C1CC1)C(c1cccs1)N1CCN(Cc2ccccc2)CC1 (stereo unspecified),·,-2
CC(=O)Nc1ccc(NC(=O)[C@@H](NC(=O)c2ccc(F)cc2)C(C)C)cc1,·,-3
O=C(c1ccc(CS(=O)(=O)c2c(Cl)cccc2Cl)o1)N1CCN(Cc2ccccc2)CC1,-0.3,1
Cc1cccc(NC(=S)N(C)C2CCCCC2)c1,·,7
CCOc1ccc(S(=O)(=O)N(CC(=O)NC2CC2)c2ccccc2)cc1,1.8,-3
c1ccc(Nc2nc3nonc3nc2Nc2ccccc2)cc1,-0.5,-8
COC(=O)c1ccc(COC(=O)c2ccco2)cc1,1.2,10

# Other results:
SMILES,MgrA DNA FP,Sa helicase inh
CC(C)CCNC(=O)C1CCCN(S(=O)(=O)c2ccc3c(c2)CC(C)N3C(=O)C2CC2)C1 (stereo unspecified),·,-27
COc1ccccc1NC(=O)C(C)OC(=O)C1COc2ccccc2O1 (stereo unspecified),·,-13
CC(C)(C)NC(=O)c1nn2c(C(F)(F)F)cc(-c3ccccc3)nc2c1Br,4.2,·
CN(C(=O)CN1C(=O)c2ccccc2C1=O)C1CCCCC1,·,20
Clc1ccc(Oc2nc(-c3ccccc3)ns2)cc1,-2.0,·
N#Cc1cc2c(nc1S(=O)Cc1ccc(Cl)cc1)CCCC2 (stereo unspecified),3.0,8
CCCNc1cc(C)nc2nc(-c3ccc(OC)cc3)nn12,·,12
COC(=O)c1cc2c(N)c(C(=O)c3cc(C#N)c(SC)nc3C)sc2nc1C,·,5
COc1ccc(NCN2C(=O)S/C(=C/c3ccc4c(c3)OCO4)C2=O)cc1Cl,-0.4,·
Cc1cc(NC(=O)Cn2cnc3c(cnn3-c3ccc(Cl)cc3)c2=O)no1,·,5
O=C1Nc2cc(C(=O)N3CCc4ccccc4C3)ccc2Sc2ccccc21,20,9
CC1(C)C(=O)Nc2ccccc2N1C(=O)COc1ccc(S(=O)(=O)N2CCOCC2)cc1Cl,·,-3
COc1cccc(Nc2ncnc3cc(OC)c(OC)cc23)c1,-1.5,·
COc1ccc2c(c1)sc(=NC(=O)CSC(C)=O)n2C,·,-19
Cc1ccc2[nH]c(=O)c(-[n+]3ccccc3)c(-c3ccccc3)c2c1,-0.7,13
CCc1nc2ccc(N)cc2[nH]1,-7.5,6
O=c1cc(-c2ccccc2)oc2c(O)c(O)ccc12,5.1,·
CN(C)S(=O)(=O)c1ccc(C(=O)OCC(=O)c2csc(N3CCCCC3)n2)cc1,·,-7
Cc1nnc2c(SC(C)C)nc3ccccc3n12,-0.1,11
COc1cc(/C=C/C(=O)OCc2cc(=O)n3ccsc3n2)ccc1OC(F)F,·,11
Cc1nc2sccn2c1-c1csc(Nc2ccc(C(=O)O)cc2)n1,2.9,12
CN(C)c1n[nH]c(N(C)C)n1,0.4,·
C=CCNC(=O)c1cc2nc(C3CC3)cc(C(F)F)n2n1,8.3,-2
Cn1c(=NC(=O)Cc2cccs2)sc2cc(F)ccc21,1.5,10
COc1ccccc1OCCSc1nc2ccccc2n1CCO,1.2,·
Cc1cc(/C=N/NS(=O)(=O)c2cccc(C(F)(F)F)c2)no1,·,26
Cc1nn(-c2ccccc2)nc1CNS(=O)(=O)c1c(C)noc1C,-1.0,·
Cc1cc[n+](CCC(=O)O)c2ccccc12,-2.4,4
Cc1noc(C)c1CSc1nnc(-c2ccccc2)o1,·,13
CC12CC3(C)CC(C)(C1)CC(C(=O)NC(C)(C)CO)(C2)C3,0.4,8

# (next part)
SMILES,MgrA DNA FP,Sa helicase inh
CC1CN(C(=O)COC(=O)c2ccc(S(=O)(=O)C(F)F)cc2)CC(C)O1 (stereo unspecified),·,19
O=C1NC(=S)S/C1=C\c1c(NCc2ccco2)nc2ccccn2c1=O,-0.3,-51
C=CCn1c(=O)c2c(ncn2C)n(C)c1=O,-0.2,0
CC(C)(C)c1cc(C(=O)/C(C#N)=C/Nc2ccccc2)no1,·,0
O=C(Nc1ccccc1)C1CCCN1C(=O)Nc1ccc(F)cc1 (stereo unspecified),3.5,6
O=C(c1ccc2c(=O)n3c(nc2c1)CCCCC3)N1CCCCCC1,·,3
CCn1c2ccccc2c2cc(C=Nc3ccc(S(N)(=O)=O)cc3)ccc21,1.0,3
CC(C#N)OC(=O)c1ccccc1Oc1ccccc1 (stereo unspecified),·,10
Cc1nc2ccc(NC(=O)COc3ccc(Cl)cc3)cc2s1,·,17
Oc1ccc(Oc2ccc(Oc3ccc(O)cc3)cc2)cc1,0.1,12
O=C(Cc1cn2ccsc2n1)OCC(=O)c1ccccc1,·,8
O=C(N/N=C\c1c(Cl)cccc1Cl)c1nc(CS(=O)(=O)c2ccc(Cl)cc2)no1,·,26
O=C(CSC1=NCCc2ccccc21)c1ccc(Cl)c(Cl)c1,-2.4,·
CC(=O)Nc1ccc(NC(=S)NC(=O)C2CCCC2)cc1,2.6,-4
N#Cc1ccc(Oc2ncnc3c2oc2ccccc23)cc1,·,-10
O=C(Nc1ccc(S(=O)(=O)N2CCOCC2)cc1)c1ccc(Br)s1,·,5
Cc1nc2ccc(S(=O)(=O)N(C)CC(=O)NC3CCN(Cc4ccccc4)CC3)cc2s1,·,-1
COc1cc2c(cc1OC)C(C)N(C(=O)CN1C(=O)CCc3ccccc31)CC2 (stereo unspecified),0.2,6
O=C1C2CCCN2C(=O)C2CCCN12 (stereo unspecified),·,-12
CSc1nc2sc3c(c2c(=O)n1-c1cccc(Br)c1)CC(C)(C)OC3,1.4,0
Cc1nc(-c2ccccn2)[nH]c(=O)c1Cl,-1.4,·
CN(C(=O)c1ccc(-c2nn(C)c(=O)c3ccccc23)cc1)c1ccccc1,·,6
NC(=O)CNS(=O)(=O)c1ccc(Br)c(C(=O)O)c1,·,-13
O=c1[nH]c2ccc(Br)cc2c(-c2ccccc2)c1CN1CCCCC1,·,24
O=C(NCc1nc(-c2ccccc2F)no1)C1CC1,·,-9
O=C(c1cc2ccccc2oc1=O)N1CCCCCC1,-1.2,-5
COc1cccc(C(=O)Nc2nncs2)c1,-4.2,-2
O=C(O)CSc1nnc2n1-c1ccc(Cl)cc1NN2,·,-87
CCOc1ccc(-c2cc3nc(C4CCN(C(=O)OC(C)(C)C)CC4)c(C(=O)O)cn3n2)cc1,·,18
Cc1ccc(COC(=O)c2ccc(=O)[nH]n2)cc1,·,5

# (more compounds)
SMILES,MgrA DNA FP,Sa helicase inh
COC(=O)c1c(NC(=O)CN2C(=O)c3cccc4cccc2c34)sc2c1CCCC2,1.4,-3
COc1cccc(C(=O)Cn2nc(-c3ccco3)ccc2=O)c1,14,-9
Cc1cc(NC(=O)c2cc(-c3ccc(F)cc3)no2)nn1CC(=O)NCc1ccco1,0.8,7
Cc1ccc(C(=O)N2CC(=O)Nc3ccccc32)cc1,·,-10
Cc1ccc2c(cnn2C(=O)CCCC(=O)N2CCN(C)CC2)c1,·,23
COC(=O)c1ccsc1NC(=O)c1ccccc1,-3.5,·
ClC(=NC1CC1)c1ccccc1,·,-11
NC(=O)c1cn(-c2ccccc2)nc1-c1ccccc1,-1.3,1
Oc1c(C=NC2CCCCCC2)sc2ccccc12,1.8,·
CN(C)CC(O)COc1ccc2ccccc2c1 (stereo unspecified),3.6,8
O=C(O)/C=C/C(=O)NC1CCCCC1,·,4
COc1ccc(-c2cn3cc(Br)ccc3n2)cc1,-1.8,-21
COC(=O)C(CCCCN1C(=O)C2C3C=CC(C3)C2C1=O)N1C(=O)C2C3C=CC(C3)C2C1=O (stereo unspecified),0.1,·
CCOC(=O)COc1ccc(Cl)cc1C(=O)OC,-2.6,·
O=C(Cn1c2ccccc2c2cn[nH]c(=O)c21)NCCC1=CCCCC1,-1.6,-3
Cc1cc(SCC(=O)OCC(=O)N2CCCC2)c(C)cc1Br,-3.5,-15
C=C(C)Cn1c(CCCNC(=O)c2ccc(F)cc2)nc2ccccc21,0.4,14
O=C(CSc1cccc[n+]1[O-])c1ccco1,·,8
CN(C)c1nc2n(c(=O)n1)CCS2,·,16
O=C1Nc2ccccc2/C1=C/c1ccc(CN2C(=O)c3ccccc3C2=O)o1,·,14
Cc1cc(NC(=O)c2cc(-c3ccc(F)cc3)no2)nn1CC(=O)N1CCOCC1,·,-2
Nc1cc(=O)[nH]c(SCC(=O)c2cccs2)n1,-0.6,3
CC(C)CSc1nnc(Cn2cnc3ccccc32)n1-c1ccccc1Cl,·,-6
COc1cccc(N2C(=O)CC(SCC(=O)Nc3ccc4ccccc4c3)C2=O)c1 (stereo unspecified),0.9,7
CCN(c1cccc(C)c1)c1ncnc2c1cnn2-c1ccc(C)cc1C,-0.3,5
CC(C)C(C(=O)O)N1C(=O)/C(=C/c2ccccn2)SC1=S (stereo unspecified),·,-8
O=C(Nc1ccc(Br)cc1C(F)(F)F)C(Cl)Cl,-1.4,·
CCC1=[N+]([O-])C(C)(C)C(c2ccccc2)=[N+]1[O-],0.8,9
O=C(CC(C(=O)O)N1CCNCC1)Nc1ccccc1Cl (stereo unspecified),·,3
COC(=O)Cn1c(C(F)(F)F)nc2ccccc21,3.2,·

# More entries
SMILES,MgrA DNA FP,Sa helicase inh
Cc1cc(C)c(S(=O)(=O)N2CCCCC2)cc1C,·,-11
CCn1nc(C)c(Br)c1-c1nc(-c2cccc(C(F)(F)F)c2)no1,·,-10
O=c1o[nH]c(-c2ccccc2)c1C=Nc1ccc(Cl)cc1,-0.9,·
NNC(=S)Nc1cc(C(F)(F)F)ccc1Cl,2.4,·
Brc1ccc2nc(-c3ccco3)c(Nc3ccccc3)n2c1,·,-19
O=C(N/N=C/c1cccs1)N/N=C/c1cccs1,3.4,·
COc1cccc(Nc2ncc3c(n2)CCNC3)c1,·,4
Nc1cc(=O)[nH]c2nnc(SCc3ccc(Br)cc3)n12,0.6,-3
CCCCS(=O)(=O)c1c(-c2ccccc2)c2cc(Cl)ccc2[nH]c1=O,-1.5,12
CN(CC(=O)N1CCCC1c1nc2ccccc2s1)S(=O)(=O)c1ccc(Cl)s1 (stereo unspecified),·,-3
CCOC(=O)c1ccc(NC(=O)CC#N)cc1,·,-30
CC(C)(C)CC(C)(C)NC(=O)Cc1cccs1,0.0,5
COc1cc(NC(=O)c2nc3ncccn3n2)cc(OC)c1OC,·,-18
Cn1nc(C(F)(F)F)c(-c2ccccc2)c1/N=C/c1ccc[nH]1,-0.9,·
COc1ccc(Cn2c(SC)nc3ccccc32)cc1,-0.2,10
COc1nc(NS(=O)(=O)c2ccc(NC(C)=O)cc2)nc(C)c1Cl,2.4,·
O=C(Cc1cccc(C(F)(F)F)c1)NC1=NCCS1,·,7

# Compound profiles, as listed above. Screens in order: MgrA DNA FP	Sa helicase inh
# Cc1cc(C)c(S(=O)(=O)N2CCCCC2)cc1C is listed with ·	-11
# Nc1cc(=O)[nH]c2nnc(SCc3ccc(Br)cc3)n12 is listed with 0.6	-3
# COc1cc(NC(=O)c2nc3ncccn3n2)cc(OC)c1OC is listed with ·	-18
# COc1nc(NS(=O)(=O)c2ccc(NC(C)=O)cc2)nc(C)c1Cl is listed with 2.4	·
# CCCCS(=O)(=O)c1c(-c2ccccc2)c2cc(Cl)ccc2[nH]c1=O is listed with -1.5	12

# The list is partial; the hit share may differ from the screen's.
